Source: PubChem BioAssay (National Center for Advancing Translational Sciences (NCATS))
RE007 growth inh – less growth of the S. pombe RE007 Vpr strain; S. pombe RE007 Vpr strain, BacTiter-Glo ATP luminescence, 24 h; control for the full effect not named in the record; Potency, µM (highest dose often 92.2 µM), without a hit: at the top dose activity change, negative = less growth; 360,000 tested, 0.21% active; AID 651644; active = well fitted falling curve with a large enough effect; inconclusive = small, poorly fitted or top-dose-only effect; inactive = no such curve, though single readings can be large or run the other way;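 further: nearly all actives have a fitted effect of over 50% in size; the assay follows cell death caused by Vpr and the record does not say whether a fall means rescue or toxicity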
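Fission yeast strain RE007, carrying one chromosomally integrated HIV-1 vpr copy, was seeded at OD 0.01 in PMG+AL medium with 23 nL pinned compound. After 24 h at 30 °C and 99% humidity, viability was read by BacTiter-Glo luminescence.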
2A StopGo – FMDV 2A StopGo reporter, luciferase signal; AID 1159524; Potency, µM (highest dose often 57.9 µM), without a hit: at the highest dose signal change, negative = less light; 410,000 tested, 1.2% active; human cells with a luciferase reporter of 2A StopGo recoding; control for the full effect not named in the record; active = well fitted falling curve with a large enough effect; inconclusive = small, poorly fitted or top-dose-only effect; inactive = no such curve, though single readings can be large or run the other way; tested in HEK293T cells; further: nearly all actives have a fitted effect of over 45% in size; luciferase light after 4 h
Marburg entry inh – Marburg virus entry inhibition; Marburg virus pseudotyped entry inhibition, cell reporter; control for the full effect not named in the record; about a third of the inactives were read at about 46 µM; 300,000 tested, 1.8% active; Potency, µM (titrated, usually from 37.8 µM), inactives show top-dose activity change, negative = inhibition, actives largely listed as inhibitors; active = well fitted inhibition curve with a large enough effect; inconclusive = small, poorly fitted or top-dose-only effect, or effect the other way; inactive = flat fitted curve, though single readings scatter; tested in HEK293 cells; about a fifth of its hits are not listed in these tables; further: luciferase read-out
LASV entry inh – inhibitors of Lassa virus binding or cell entry; Lassa virus pseudotype entry inhibition, cell reporter; control for the full effect not named in the record; 300,000 tested, 1.2% active; Potency, µM (doses to about 37.9 µM), inactives show at the top dose activity change, negative = inhibition, most hits filed as inhibitors; active means well fitted inhibition curve with a large enough effect; inconclusive means small, poorly fitted or top-dose-only effect, or effect the other way; inactive means flat fitted curve, though single readings scatter; tested in HEK293 cells; further: nearly all actives have a fitted effect of over 50% in size; luciferase read-out
Active calls of the source: *; ? = inconclusive; . = no result given; & = joins results of further samples; [ ] = another dose, or the depositor's remark. On the % scale 0 is the no-effect control and ±100 the full control effect; potency means the concentration at half of the fitted maximal effect. The list is partial (hit frequency here may not be typical).

Screens in order – RE007 growth inh	2A StopGo	Marburg entry inh	LASV entry inh
1) CCCCCCN1CCN(C2CN(Cc3ccc(F)cc3)S(=O)(=O)C2)CC1 (stereo not drawn)
→ -15%	-5%	.	-2%[46.1 µM]
2) COc1ccc([C@H]2C[C@@H](n3cc(-c4ccc(F)cc4)nn3)[C@H](O)CN2C(=O)c2cccs2)cc1
→ 11%	4%	.	26%[46.1 µM]
3) O=C(NCCCCc1ccccc1)c1cccc(NC(=O)c2ccccc2)c1
→ -14%	4%	.	12%[46.1 µM]
4) COC(=O)C1CCN(C2CN(Cc3ccccc3)S(=O)(=O)C2)CC1 (stereo not drawn)
→ -10%	1%	.	2%[46.1 µM]
5) CCCCN1CC(COC)Oc2cccc(F)c2S1(=O)=O (stereo not drawn)
→ 3%	-8%	.	?
6) O=c1cc(CN2CCCC2)c2c(ccc3ccccc32)o1
→ 0%	-11%	.	5%[46.1 µM]
7) COCOCCn1cc(CN2CCS(=O)(=O)N(Cc3ccc(-c4cccc(CO)c4)cc3)C(CC(C)C)C2=O)nn1 (stereo not drawn)
→ -12%	-18%	.	?
8) Cn1ccc2c(N3CCCCCC3)cc3c(c21)C1CCC3C1 (stereo not drawn)
→ -19%	?	.	?
9) CCC(=O)c1ccc(OCc2cn(CC(=O)c3ccc(O)cc3)nn2)cc1
→ -16%	13%	.	?
10) CC(C)C1C(=O)N(Cc2cn(CCC3OCCO3)nn2)CCS(=O)(=O)N1Cc1ccc(-c2ccc(Cl)c(Cl)c2)cc1 (stereo not drawn)
→ 9%	?	.	?
11) O=[N+]([O-])c1cccc(COc2cccc(CN3CCCCC3)c2)c1
→ -19%	-7%	.	?
12) COCCN(CCOC)Cc1cc(=O)oc2ccccc12
→ -4%	-17%	.	?
13) COCCN(CCOC)Cc1cc(=O)oc2cc(C)c(Cl)cc12
→ -14%	-3%	.	?
14) COc1ccc([C@H]2C[C@@H](O)[C@H](n3cc(COC(=O)c4ccccc4)nn3)CN2Cc2cccs2)cc1
→ 11%	-10%	.	?
15) CN(C)CCN(C)C1CN(Cc2ccccc2)S(=O)(=O)C1 (stereo not drawn)
→ 7%	-4%	.	7%[46.1 µM]
16) O=C(NCCCc1ccccc1)c1cccc(NC(=O)C2CCCC2)c1
→ -2%	5%	.	?
17) COc1cccc(C(=O)N2[C@H](COCc3ccccc3)C=CS2(=O)=O)c1
→ -5%	0%	.	?
18) CC1C(=O)N(Cc2cn(CC3CCCCC3)nn2)CCS(=O)(=O)N1Cc1ccc(-c2cccc(CO)c2)cc1 (stereo not drawn)
→ 16%	?	.	?
19) COCOCCn1cc(CN2CCS(=O)(=O)N(Cc3ccc(-c4ccccc4)cc3)C(C(C)C)C2=O)nn1 (stereo not drawn)
→ ?	-23%	.	?
20) Cc1ccc(CN2CC(N3CCN(c4ccccn4)CC3)CS2(=O)=O)cc1 (stereo not drawn)
→ -26%	-18%	.	-4%[46.1 µM]
21) C[C@H]1[C@@H](c2ccccc2)Oc2ccc(Cl)cc2S(=O)(=O)N1Cc1ccc(F)cc1F
→ 11%	-19%	.	-16%[46.1 µM]
22) COCOCCn1cc(CN2CCS(=O)(=O)N(Cc3ccc(-c4ccc(C)cc4)cc3)C(CC(C)C)C2=O)nn1 (stereo not drawn)
→ 5%	-6%	.	?
23) CC(C)CC1C(=O)N(Cc2cn(Cc3ccco3)nn2)CCS(=O)(=O)N1Cc1ccc(-c2cccc(CO)c2)cc1 (stereo not drawn)
→ 8%	?	.	?
24) CC(C)C[C@H]1COc2cc(Br)ccc2S(=O)(=O)N1
→ 7%	-28%	.	1%[46.1 µM]
25) COc1ccc(-c2ccc(CN3C(CC(C)C)C(=O)N(Cc4cn(CCC5OCCCO5)nn4)CCS3(=O)=O)cc2)cc1OC (stereo not drawn)
→ 1%	?	.	7%[46.1 µM]
26) COc1ccc2c(CN(C)Cc3ccccc3)cc(=O)oc2c1
→ 0%	32%[activator]	.	?
27) O=C(Cn1cc(COc2ccccc2[N+](=O)[O-])nn1)c1ccc(O)cc1
→ 1%	32%[activator]	.	?
28) CC(C)(C)OC(=O)N1CCCC(C(=O)Nc2ccc(C(=O)NC3CC3)cc2)C1 (stereo not drawn)
→ -13%	-7%	.	?
29) COc1ccc(NC(=O)C[C@H]2C(=O)N(Cc3ccccc3)C[C@@H]2CSC)cc1
→ -3%	6%	.	-7%[46.1 µM]
30) O=S1(=O)C=C[C@@H](COCc2ccccc2)N1Cc1ccc(Br)cc1
→ -8%	-6%	.	-14%[46.1 µM]
31) O=S1(=O)CC(N2CCN(c3ccccn3)CC2)CN1Cc1ccccc1 (stereo not drawn)
→ -28%	-3%	.	6%[46.1 µM]
32) Cc1ccc([C@H]2C[C@@H](n3cc(COC(=O)c4ccccc4)nn3)[C@H](O)CN2CC2CCCCC2)cc1
→ -2%	4%	.	?
33) CC(C)CC1C(=O)N(Cc2cn(Cc3ccco3)nn2)CCS(=O)(=O)N1Cc1ccc(-c2ccc(Cl)cc2)cc1 (stereo not drawn)
→ 4%	?	.	?
34) CC(C)C1C(=O)N(Cc2cn(CC3CCCCC3)nn2)CCS(=O)(=O)N1Cc1ccc(-c2cccc(CO)c2)cc1 (stereo not drawn)
→ -2%	?	.	?
35) CN(C)CCN(C)C1CN(CCc2ccccc2)S(=O)(=O)C1 (stereo not drawn)
→ 2%	-20%	.	4%[46.1 µM]
36) O=S(=O)(CCNCc1ccco1)NC1CCCCC1
→ -6%	15%	.	12%[46.1 µM]
37) O=C(NCCCc1ccccc1)c1cccc(NC(=O)C2CCC2)c1
→ -4%	-5%	.	?
38) COCOCCn1cc(CN2CCS(=O)(=O)N(Cc3ccc(-c4ccc(OC)cc4)cc3)C(C(C)C)C2=O)nn1 (stereo not drawn)
→ 8%	-23%	.	?
39) CCOc1ccccc1NC(=S)C(=C([O-])c1ccc2c(c1)OCCO2)[n+]1ccc(CC)cc1
→ -2%	4%	.	8%[46.1 µM]
40) CC(C)C1C(=O)N(Cc2cn(Cc3ccco3)nn2)CCS(=O)(=O)N1Cc1ccc(-c2ccc(F)nc2)cc1 (stereo not drawn)
→ 7%	-8%	.	-10%[46.1 µM]
41) O=S1(=O)C[C@H](N2CCC(Cc3ccccc3)CC2)[C@@H](COCc2ccccc2)N1
→ -7%	-18%	.	?
42) O=C(NCc1ccccc1)c1cccc(NC(=O)c2ccccc2)c1
→ ?	35%[activator]	.	-38%[46.1 µM]
43) CC(C)CC1C(=O)N(Cc2cn(CCC3OCCCO3)nn2)CCS(=O)(=O)N1Cc1ccc(-c2ccc(Cl)nc2)cc1 (stereo not drawn)
→ -4%	-10%	.	?
44) O=C(NC1CC1)c1cccc(NC(=O)C2CCCCC2)c1
→ -4%	6%	.	?
45) Cc1ccc([C@H]2C[C@@H](O)[C@H](n3cc(COC(=O)c4ccccc4)nn3)CN2C(=O)c2cccs2)cc1
→ -2%	-19%	.	-7%[46.1 µM]

Brought forward from above: 3 entries, then new ones.
Screens in order – RE007 growth inh	2A StopGo	Marburg entry inh	LASV entry inh
43) CC(C)CC1C(=O)N(Cc2cn(CCC3OCCCO3)nn2)CCS(=O)(=O)N1Cc1ccc(-c2ccc(Cl)nc2)cc1 (stereo not drawn)
→ -4%	-10%	.	?
44) O=C(NC1CC1)c1cccc(NC(=O)C2CCCCC2)c1
→ -4%	6%	.	?
45) Cc1ccc([C@H]2C[C@@H](O)[C@H](n3cc(COC(=O)c4ccccc4)nn3)CN2C(=O)c2cccs2)cc1
→ -2%	-19%	.	-7%[46.1 µM]
46) CC(C)C1C(=O)N(Cc2cn(CCC3OCCO3)nn2)CCS(=O)(=O)N1Cc1ccc(-c2ccccc2)cc1 (stereo not drawn)
→ -6%	-27%	.	-11%[46.1 µM]
47) Cn1ccc2c(-c3ccc(CO)cc3)cc3c(c21)C1CCC3C1 (stereo not drawn)
→ 1%	-21%	.	?
48) CCCCN1CC(COCc2ccccc2)Oc2cccc(Oc3ccc(C)cc3)c2S1(=O)=O (stereo not drawn)
→ 11%	32%[activator]	.	?
49) Cc1ccc([C@H]2C[C@H](O)[C@@H](n3cc(-c4ccc(F)cc4)nn3)CN2Cc2cccs2)cc1
→ -28%	-14%	.	?
50) COC(=O)[C@@H]1[C@H](CCc2ccccc2)NC(=O)N(Cc2ccccc2)[C@@H]1C
→ -11%	0%	-15%&-15%[14.2 µM]	.
51) C#CCOCCOCCOCCNc1nc(N2CCN(C(=O)[C@H](CCCCN)n3cc(CC(C)O)nn3)CC2)nc(N2CCN(C(=O)[C@H](Cc3ccc(O)cc3)n3cc(CCO)nn3)CC2)n1 (stereo partly drawn)
→ 9%	-10%	1%	.
52) COc1ccc(-c2ccc(CN3C(CC(C)C)C(=O)N(Cc4cn(Cc5ccco5)nn4)CCS3(=O)=O)cc2)cc1 (stereo not drawn)
→ 7%	-12%	?	.
53) COc1ccc(CNCCS(=O)(=O)NCc2ccc(OC)cc2)cc1
→ 0%	-13%	?	.
54) CN(CCc1ccccc1)c1cc2c(c3c1ccn3C)C1CCC2C1 (stereo not drawn)
→ -28%	-23%	?	.
55) CC(C)C1C(=O)N(Cc2cn(CCC3OCCCO3)nn2)CCS(=O)(=O)N1Cc1ccc(-c2ccc(Cl)nc2)cc1 (stereo not drawn)
→ -12%	-8%	?	.
56) CN(C)S(=O)(=O)c1ccc(/C(O)=C2/C(=O)C(=O)N(CCN3CCCCC3)C2c2cccnc2)cc1 (stereo not drawn)
→ 8%	-15%	-6%	.
57) COc1ccc([C@H]2C[C@@H](O)[C@H](n3cc(COC(=O)c4ccccc4)nn3)CN2C(=O)C2CCCCC2)cc1
→ 3%	-13%	?	.
58) CCN1CCN(S(=O)(=O)c2ccc(Cl)c(C(=O)N(C)Cc3ccc(C(C)(C)C)cc3)c2)CC1
→ ?	?	-2%	.
59) CCN1C(=O)N[C@@H](c2cccc(F)c2)C(C(C)=O)=C1C
→ 5%	-4%	?	.
60) CC(C)C[C@@H](CNCC(=O)[C@H](Cc1c[nH]c2ccccc12)NC(=O)c1[nH]cnc1C(=O)N[C@@H](C)CN)NC(=O)c1nc[nH]c1C(=O)N[C@@H](C)C(=O)O
→ -7%	-9%	1%	.
61) Cn1ccc2c(-c3ccc(C(N)=O)cc3)cc3c(c21)C1CCC3C1 (stereo not drawn)
→ 3%	-24%	?	.
62) Cc1ccc(-c2ccc(CN3C(CC(C)C)C(=O)N(Cc4cn(CCC5OCCCO5)nn4)CCS3(=O)=O)cc2)cc1 (stereo not drawn)
→ 8%	?	?	.
63) C=CCN1c2ccccc2[C@]23C[C@@H](C(=O)OC)N(C(=O)OCC)C2=NC(C(=O)OC)=C(C(=O)OC)[C@H]13
→ 4%	-5%	0%[14.2 µM]	.
64) COCOCCn1cc(CN2CCS(=O)(=O)N(Cc3ccc(-c4ccccc4)cc3)C(CC(C)C)C2=O)nn1 (stereo not drawn)
→ -15%	?	?	.
65) Cn1ccc2c(-c3ccc(F)nc3)cc3c(c21)C1CCC3O1 (stereo not drawn)
→ -20%	-24%	?	.
66) COCOCCn1cc(CN2CCS(=O)(=O)N(Cc3ccc(-c4ccncc4)cc3)C(C(C)C)C2=O)nn1 (stereo not drawn)
→ 2%	-19%	?	.
67) COc1ccc(C(=O)Cn2c(N3CCCCC3)nc3c2c(=O)n(C)c(=O)n3C)cc1OC
→ 5%	-20%	3%&2%	.
68) CCCCN1C[C@H](COC(=O)CCC)Oc2cccc(F)c2S1(=O)=O
→ 2%	-22%	?	.
69) Cn1c(=O)[nH]c(=O)c2c1nc(N1CCCCC1)n2CCSc1ncccn1
→ 4%	-23%	1%	.
70) CCCCN1CC(C)(C)Oc2cccc(F)c2S1(=O)=O
→ -18%	-16%	?	.
71) CC(C)C1C(=O)N(Cc2cn(Cc3ccco3)nn2)CCS(=O)(=O)N1Cc1ccc(-c2ccc(Cl)c(Cl)c2)cc1 (stereo not drawn)
→ 1%	?	?	.
72) CCN1C(=O)N[C@@H](CCc2ccccc2)C(C(=O)OC)=C1C
→ -1%	-2%	17%&17%[14.2 µM]	.
73) O=S1(=O)CC(N2CCN(CC3CC3)CC2)CN1CCc1ccccc1 (stereo not drawn)
→ -6%	-12%	?	.
74) Cc1ccc([C@H]2C[C@H](O)[C@@H](n3cc(C4CC4)nn3)CN2Cc2cccs2)cc1
→ 6%	34%[activator]	?	.
75) Cc1ccc(S(=O)(=O)N2CCC(=O)N([C@H](COCc3cccc(C)c3)C(C)C)CC2)cc1
→ 1%	-3%	?	.
